From PubChem BioAssay
FGF22 binding: binders of recombinant human FGF22 by thermal shift; AID 651658; calls only at 9.99 µM; SYPRO orange fluorescence; percent of sucrose octasulfate shift, DMSO zero; 1.5% of 340,000 active;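 active means melting point raised past a set limit in the mean and every replicate; three in four hits are not shown here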
Target sequence (Q9HCT0 whole entry, looked up): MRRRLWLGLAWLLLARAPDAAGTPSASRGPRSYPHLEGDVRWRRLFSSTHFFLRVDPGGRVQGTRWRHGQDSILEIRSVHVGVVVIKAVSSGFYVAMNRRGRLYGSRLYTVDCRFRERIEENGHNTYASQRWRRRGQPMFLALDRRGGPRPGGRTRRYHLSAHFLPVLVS
Calls only; i = inactive. These rows are one share of the data. The share of hits here may be higher or lower than overall.

SMILES | FGF22 binding
COCC#Cc1cnc2c(c1)C(=O)N([C@H](C)CO)C[C@@H](C)[C@@H](CN(C)C(=O)C1CCC1)O2 | i
C[C@H](CO)N1C[C@H](C)[C@H](CN(C)C(=O)Nc2ccccc2)OCCCC[C@H](C)Oc2ccc(NC(=O)Cc3ccccc3)cc2C1=O | i
CCCCOCC1CN(CCCC)S(=O)(=O)c2c(cccc2N(C)S(=O)(=O)c2ccc(C)cc2)O1 (stereo unspecified) | i
C[C@@H]1CN([C@H](C)CO)C(=O)Cc2cc(NC(=O)Nc3ccc(C(F)(F)F)cc3)ccc2O[C@H]1CN(C)Cc1ccc(Cl)c(Cl)c1 | i
C[C@@H]1CN([C@@H](C)CO)C(=O)c2cccc(NC(=O)c3cnccn3)c2O[C@@H]1CN(C)C(=O)Nc1ccc(C(F)(F)F)cc1 | i
COCC(=O)N1CCCCN2[C@@H](CO)[C@H](c3ccc(C#Cc4ccccc4)cc3)[C@@H]2C1 | i
C[C@@H]1CN([C@@H](C)CO)C(=O)c2cccc(NC(=O)Nc3ccc(F)cc3)c2O[C@@H]1CN(C)Cc1ccc(Cl)c(Cl)c1 | i
COCC(=O)N(C)C[C@@H]1Oc2ncc(-c3ccc(C#N)cc3)cc2C(=O)N([C@H](C)CO)C[C@H]1C | i
C/C=C/c1ccc2c(c1)O[C@H](CN(C)Cc1cccc(F)c1)[C@@H](C)CN([C@@H](C)CO)S2(=O)=O | i
CCCNC(=O)C[C@@H]1CC[C@@H]2[C@@H](COc3ccc(NC(=O)NCC)cc3C(=O)N2C)O1 | i
CCNC(=O)C[C@@H]1CC[C@@H]2[C@@H](COc3ccc(NC(=O)c4cc(C)on4)cc3C(=O)N2C)O1 | i
O=C1O[C@@H](c2ccccc2)[C@@H](c2ccccc2)N2[C@@H](c3ccc(OCCO)cc3)[C@]3(C(=O)Nc4ccccc43)[C@@H](C(=O)Nc3nc4ccccc4s3)[C@H]12 | i
CS(=O)(=O)Nc1ccc2c(c1)[C@@H]1C[C@@H](CC(=O)NCc3ccccc3F)O[C@H](CO)[C@@H]1O2 | i
O=C(NCC[C@@H]1CC[C@H](NS(=O)(=O)c2cccc(F)c2)[C@@H](CO)O1)C1CC1 | i
COCC(=O)N(C)C[C@H]1Oc2cc(Br)ccc2S(=O)(=O)N([C@H](C)CO)C[C@@H]1C | i
CN1C(=O)c2cc(NS(C)(=O)=O)ccc2OC[C@@H]2O[C@@H](CC(=O)NCc3ccccc3)CC[C@@H]21 | i
O=C(Nc1cc(F)ccc1F)N[C@@H]1CC[C@H](CC(=O)N2CCc3ccccc3C2)O[C@H]1CO | i
C[C@@H]1CN([C@H](C)CO)C(=O)c2cc(NC(=O)Nc3ccc(F)cc3)ccc2O[C@@H](C)CCCCO[C@@H]1CN(C)C(=O)NC1CCCCC1 | i
CC(C)NC(=O)N(C)C[C@@H]1OCCCC[C@@H](C)Oc2ccc(NS(=O)(=O)c3ccc(Cl)cc3)cc2C(=O)N([C@H](C)CO)C[C@@H]1C | i
C[C@@H]1CCCCO[C@@H](CN(C)Cc2ccccc2)[C@H](C)CN([C@@H](C)CO)C(=O)c2cc(NC(=O)Nc3cccc4ccccc34)ccc2O1 | i
O=C(c1cccnc1)N1CC2(C1)[C@H](c1ccccc1)[C@@H](CO)N2Cc1ccccc1 | i
CC(C)NC(=O)Nc1ccc2c(c1)CC(=O)N([C@@H](C)CO)C[C@@H](C)[C@H](CN(C)C)O2 | i
Cc1cc(C(=O)Nc2ccc3c(c2)C(=O)N(C)[C@H]2CC[C@@H](CC(=O)NC4CCCC4)O[C@H]2CO3)no1 | i
C[C@@H]1CN([C@H](C)CO)S(=O)(=O)c2ccc(C#C[C@@H](C)O)cc2O[C@@H]1CN(C)C | i
CNC[C@@H]1Oc2cc(C#CC(C)(C)O)ccc2S(=O)(=O)N([C@@H](C)CO)C[C@@H]1C | i

In the list so far, ten have sulfur.
SMILES | FGF22 binding
CCCCOCC1CN(CCCC)S(=O)(=O)c2c(cccc2N(C)S(=O)(=O)c2ccc(C)cc2)O1 (stereo unspecified) | i
C/C=C/c1ccc2c(c1)O[C@H](CN(C)Cc1cccc(F)c1)[C@@H](C)CN([C@@H](C)CO)S2(=O)=O | i
O=C1O[C@@H](c2ccccc2)[C@@H](c2ccccc2)N2[C@@H](c3ccc(OCCO)cc3)[C@]3(C(=O)Nc4ccccc43)[C@@H](C(=O)Nc3nc4ccccc4s3)[C@H]12 | i
CS(=O)(=O)Nc1ccc2c(c1)[C@@H]1C[C@@H](CC(=O)NCc3ccccc3F)O[C@H](CO)[C@@H]1O2 | i
O=C(NCC[C@@H]1CC[C@H](NS(=O)(=O)c2cccc(F)c2)[C@@H](CO)O1)C1CC1 | i
COCC(=O)N(C)C[C@H]1Oc2cc(Br)ccc2S(=O)(=O)N([C@H](C)CO)C[C@@H]1C | i
CN1C(=O)c2cc(NS(C)(=O)=O)ccc2OC[C@@H]2O[C@@H](CC(=O)NCc3ccccc3)CC[C@@H]21 | i
CC(C)NC(=O)N(C)C[C@@H]1OCCCC[C@@H](C)Oc2ccc(NS(=O)(=O)c3ccc(Cl)cc3)cc2C(=O)N([C@H](C)CO)C[C@@H]1C | i
C[C@@H]1CN([C@H](C)CO)S(=O)(=O)c2ccc(C#C[C@@H](C)O)cc2O[C@@H]1CN(C)C | i
CNC[C@@H]1Oc2cc(C#CC(C)(C)O)ccc2S(=O)(=O)N([C@@H](C)CO)C[C@@H]1C | i

New compounds follow
SMILES | FGF22 binding
COCC(=O)N1[C@@H](C#N)[C@@H](c2ccccc2-c2ccccc2F)[C@@H]1CO | i
COc1ccc(C#Cc2ccc([C@@H]3[C@H]4CN(S(=O)(=O)c5ccccc5)CCCCN4[C@H]3CO)cc2)cc1 | i
C[C@H](CO)N1C[C@H](C)[C@H](CN(C)C(=O)Nc2cccc3ccccc23)Oc2ccc(NS(C)(=O)=O)cc2C1=O | i
COc1ccc(COCC23N=C4SCc5ccccc5C(=O)N4[C@H](c4ccccc4O2)[C@H]3CO[Si](C)(C)C(C)(C)C)cc1 | i
CC(=O)N(C)C[C@H]1Oc2cc(C#CCN(C)C)ccc2S(=O)(=O)N([C@@H](C)CO)C[C@H]1C | i
COc1ccc2c3c([nH]c2c1)[C@H](CO)N(C(=O)CN1CCOCC1)CC31CN(C(C)=O)C1 | i
O=C(N[C@@H]1CC[C@H](CCn2cc(Cc3ccccc3)nn2)O[C@@H]1CO)c1ccccn1 | i
CO[C@@H](CN(C)Cc1cc(F)ccc1F)[C@@H](C)CN([C@@H](C)CO)S(=O)(=O)c1ccc(F)cc1 | i
Cc1c(NC(=O)CC#N)c(=O)n(-c2ccccc2)n1C | i
COc1cccc(NC(=O)N2C[C@@H](O)COC[C@@H]3O[C@@H](CC(=O)NC4CCCC4)CC[C@H]32)c1 | i
COc1ccc(NC(=O)N(C)C[C@@H]2OCc3ccccc3-c3ccccc3C(=O)N([C@H](C)CO)C[C@H]2C)c(OC)c1 | i
COc1ccc(-c2cnc3c(c2)C(=O)N([C@@H](C)CO)C[C@H](C)[C@H](CN(C)Cc2cccnc2)O3)cc1 | i
CC=Cc1ccc2n(c1=O)C[C@H]1[C@H](CO)[C@@H](C(=O)N3CCCCC3)[C@@H]2N1Cc1ccccn1 (mixture of isomers) | i
COc1ccc(S(=O)(=O)N2C[C@@H](O)COC[C@H]3O[C@H](CC(=O)NCCCN4CCOCC4)CC[C@@H]32)cc1 | i
C[C@@H]1CN([C@H](C)CO)C(=O)Cc2cc(NS(C)(=O)=O)ccc2O[C@H]1CN(C)C | i
CCC(=O)N(C)C[C@H]1Oc2cc(C3=CCCC3)ccc2S(=O)(=O)N([C@@H](C)CO)C[C@H]1C | i
C[C@@H]1CN([C@@H](C)CO)C(=O)c2cccc(NS(=O)(=O)c3ccc(F)cc3)c2O[C@H]1CN(C)Cc1ccccc1 | i
C[C@H](CO)N1C[C@H](C)[C@H](CN(C)Cc2ccc(Oc3ccccc3)cc2)Oc2cc(-c3ccncc3)ccc2S1(=O)=O | i
CCC(=O)Nc1ccc2c(c1)C(=O)N(C)[C@@H]1CC[C@@H](CC(=O)N[C@H](C)c3ccccc3)O[C@@H]1CO2 | i
CO[C@@H](CN(C)Cc1nccs1)[C@@H](C)CN([C@H](C)CO)S(=O)(=O)c1ccc(F)cc1 | i
CO[C@@H](CN(C)S(=O)(=O)c1ccccc1)[C@H](C)CN(C(=O)Nc1ccccc1F)[C@H](C)CO | i
CC(C)CC#Cc1ccc2c(c1)O[C@H](CN(C)C(=O)c1cccnc1)[C@@H](C)CN([C@H](C)CO)S2(=O)=O | i
C[C@@H]1CCCCO[C@H](CN(C)Cc2ccc(C(=O)O)cc2)[C@@H](C)CN([C@@H](C)CO)C(=O)c2cc(NS(C)(=O)=O)ccc2O1 | i
O=C(c1ccc(F)cc1)N1CCCCN2[C@H](CO)[C@H](c3ccc(-c4ccc(F)cc4)cc3)[C@H]2C1 | i
C[C@H]1CCCCO[C@@H](CN(C)Cc2ccc(C(F)(F)F)cc2)[C@@H](C)CN([C@@H](C)CO)C(=O)c2cc(NS(C)(=O)=O)ccc2O1 | i
Further compounds:
SMILES | FGF22 binding
CN(C)C(=O)[C@H]1[C@H](CO)[C@H]2Cn3c(ccc(-c4cccc(F)c4)c3=O)[C@H]2N1C(=O)c1cnccn1 | i
O=C1N(CCS(=O)(=O)c2ccccc2)Cc2ccccc2[C@@H]2OC(c3ccc(OCCCO)cc3)=N[C@]12CCS(=O)(=O)c1ccccc1 | i
O=C([C@@H]1[C@@H](CO)[C@@H]2Cn3c(ccc(-c4ccccc4F)c3=O)[C@@H]2N1CC1CC1)N1CCCCC1 | i
CO[C@H]1CN(C)C(=O)c2cc(NS(C)(=O)=O)ccc2OC[C@@H](C)N(CCC(F)(F)F)C[C@H]1C | i
CCCNC(=O)N(C)C[C@H]1Oc2cc(C#CCC(C)C)ccc2S(=O)(=O)N([C@H](C)CO)C[C@H]1C | i
C[C@@H]1CCCCO[C@H](CN(C)C(=O)CCCN(C)C)[C@@H](C)CN([C@@H](C)CO)C(=O)c2cc(NC(=O)Nc3ccc(F)cc3)ccc2O1 | i
Cc1ccc(S(=O)(=O)Nc2ccc3c(c2)CC(=O)N([C@H](C)CO)C[C@@H](C)[C@@H](CN(C)Cc2ccncc2)O3)cc1 | i
Cc1ccc(S(=O)(=O)N(C)C[C@H]2OCCCC[C@@H](C)Oc3ccc(NC(=O)Nc4cccc5ccccc45)cc3C(=O)N([C@@H](C)CO)C[C@@H]2C)cc1 | i
CC(C)C#Cc1cnc2c(c1)C(=O)N([C@@H](C)CO)C[C@H](C)[C@@H](CN(C)C(=O)c1ccc3c(c1)OCO3)O2 | i
C[C@@H]1CN([C@@H](C)CO)S(=O)(=O)c2ccc(C#Cc3cccc(F)c3)cc2O[C@@H]1CN(C)C | i
C[C@H](CO)N1C[C@H](C)[C@H](CN(C)C(=O)Nc2ccc(C(F)(F)F)cc2)OCCCC[C@H](C)Oc2ccc(NS(=O)(=O)c3ccc(F)cc3)cc2C1=O | i
Cc1noc(C)c1S(=O)(=O)Nc1cccc2c1O[C@H](CN(C)C(=O)Nc1ccc(F)cc1)[C@H](C)CN([C@@H](C)CO)C2=O | i
C[C@@H]1CN([C@H](C)CO)C(=O)CCCn2cc(nn2)CO[C@H]1CN(C)CC1CCCCC1 | i
O=C(CCN1CCCCC1)NCC[C@@H]1CC[C@@H](NC(=O)C2CCOCC2)[C@@H](CO)O1 | i
OC[C@H]1[C@H](c2ccc(-c3ccccc3F)cc2)[C@H]2CN(Cc3cccnc3)CCCCN21 | i
COC(=O)C[C@@H]1C[C@@H]2c3cc(NC(=O)c4cccnc4)ccc3O[C@@H]2[C@@H](CO)O1 | i
C[C@@H]1CN([C@H](C)CO)C(=O)c2cc(NC(=O)Cc3cn(C)c4ccccc34)ccc2O[C@H]1CN(C)S(=O)(=O)c1cn(C)cn1 | i
COC(=O)[C@H](Cc1ccccc1)N1CC=CS1(=O)=O | i
Cc1noc(C)c1NC(=O)N(C)C[C@@H]1OCCCC[C@@H](C)Oc2ccc(NC(=O)CCC(F)(F)F)cc2C(=O)N([C@H](C)CO)C[C@H]1C | i
CO[C@@H]1CN(C)C(=O)c2ccc(NC(=O)C3CC3)cc2OC[C@@H](C)NC[C@@H]1C | i
N#C[C@@H]1[C@H](c2ccccc2)[C@H](CO)N1S(=O)(=O)Cc1ccccc1 | i
CO[C@@H]1CN(C)C(=O)c2ccc(NC(=O)Nc3ccccc3F)cc2OC[C@H](C)N(Cc2ccccc2C(=O)O)C[C@H]1C | i
CN(C)CC(=O)Nc1ccc2c(c1)[C@@H]1C[C@@H](CC(=O)NC3CCCC3)O[C@@H](CO)[C@@H]1O2 | i
C[C@H]1CN([C@@H](C)CO)C(=O)CCCn2cc(nn2)CO[C@H]1CN(C)C(=O)Nc1ccccc1F | i
Cc1ccc(S(=O)(=O)Nc2ccc3c(c2)C(=O)N([C@@H](C)CO)C[C@@H](C)[C@H](CN(C)C(=O)NC2CCCCC2)OCCCC[C@@H](C)O3)cc1 | i
Next section
SMILES | FGF22 binding
COc1ccc(CNC(=O)C[C@@H]2C=C[C@H](NC(=O)c3cccc(F)c3)[C@H](CO)O2)cc1 | i
C[C@H]1CN([C@@H](C)CO)C(=O)Cc2cc(NC(=O)CCN3CCOCC3)ccc2O[C@H]1CN(C)Cc1ccc(Cl)c(Cl)c1 | i
O=C(CCN1CCCCC1)NCC[C@H]1CC[C@@H](NC(=O)Cc2cccnc2)[C@@H](CO)O1 | i
Cc1noc(C)c1S(=O)(=O)Nc1ccc2c(c1)CC(=O)N([C@H](C)CO)C[C@@H](C)[C@@H](CN(C)S(C)(=O)=O)O2 | i
C[C@@H]1CCCCO[C@@H](CN(C)C)[C@@H](C)CN([C@@H](C)CO)C(=O)c2cc(NS(=O)(=O)c3cn(C)cn3)ccc2O1 | i
C[C@@H]1CN([C@@H](C)CO)C(=O)c2cccc(NS(=O)(=O)c3ccc(F)cc3)c2O[C@H]1CN(C)C(=O)Nc1ccc2c(c1)OCO2 | i
O=C(C[C@H]1C[C@@H]2c3cc(NC(=O)Nc4ccc(F)cc4)ccc3O[C@@H]2[C@@H](CO)O1)NCC1CC1 | i
CCCNC(=O)Nc1ccc2c(c1)C(=O)N(C)C[C@H](OC)[C@H](C)CN(C(=O)C1CCOCC1)[C@@H](C)CO2 | i
